# High-throughput results (PubChem)
# NPYLR7 agonist = mosquito NPYLR7 agonism | HEK293T NPYLR7/Galpha15, GCaMP6s calcium fluorescence | activation, % at 10 µM | hit rate 0.15% among 270,000 | AID 1259423; in the data active = activation above about 40%;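 also: 0% = vehicle and 100% = reference agonist at the receptor; some compounds past the cut are filed as inactive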
# NPYLR7 agonist max-min = second read-out of NPYLR7 agonist, no call of its own (marks repeat the call); activation, %; measured here: Max-Min RFU normalised activation; some inactives read as strong as hits;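 span of the calcium signal over five minutes; 0% = vehicle and 100% = native peptide agonist; compound fluorescence can raise it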
# * marks the source's active call; other numbers are inactive results; & = joins results of further samples. Not all compounds are listed (hit frequency here may not be typical).
# Each structure is followed by: NPYLR7 agonist, NPYLR7 agonist max-min
> CNS(=O)(=O)c1ccc(S(=O)(=O)N(C)c2ccccc2C(=O)OC)cc1
    7, 4
> CN(C)CCOC(=O)NCC12CC3CC(CC(C3)C1)C2
    -4, -5
> COc1ccc(C(=O)N2CCN(C(c3ccccc3)c3ccc(C)cc3)CC2)cc1F (stereo unspecified)
    -1, 7
> CCCCN(C(=O)c1cc2c(C)nn(Cc3ccccc3Cl)c2s1)C1CCS(=O)(=O)C1 (stereo unspecified)
    -3, -8
> COc1cc(-c2n[nH]c(CCc3ccccc3)n2)ccn1
    28, 20
> Cc1nc(C2CCN(C(=O)CCc3ccc(C(C)C)cc3)CC2)n[nH]1
    3, 5
> CCc1nc(SCC(=O)N2CCC3(CN(C)C(=O)O3)C2)n[nH]1 (stereo unspecified)
    6, 2
> c1ccc(C(OCC2CO2)c2ccccc2)cc1 (stereo unspecified)
    2, 1
> O=C(CC1NC(=O)c2ccccc21)NCc1cccnc1-n1ccnc1 (stereo unspecified)
    5, 3
> CCCCc1ccc(S(=O)(=O)NC(=O)C2(C)CCN2C(=O)CCC)cc1 (stereo unspecified)
    -4, -10
> CC(NC1CCN(c2ccc(NC(=O)c3cnccn3)cc2)CC1)c1cnn(-c2ccccc2)c1 (stereo unspecified)
    14, 2
> CO[C@H]1CN(C(=O)C(c2ccccc2)c2ccccc2)[C@H]2CC[C@@H](O)[C@@H]1C2
    20, 21
> CC(C)NC(=O)c1cc(Br)c(Br)s1
    8, 10
> C=c1ccccc1=C1NNC(=Nc2ccc(F)c(F)c2F)O1
    13, 8
> O=C(NC[C@H]1C[C@H]2C=C[C@H]1C21CC1)c1coc(CN2CCN(Cc3ccccc3)CC2)n1
    4, 2
> COc1ccc(Cc2nc3ccc(C(=O)N(C)Cc4nccs4)cc3o2)cc1OC
    3, 1
> CC(C)NC(=O)c1ccccc1NC(=S)NC(=O)/C=C/c1ccccc1Cl
    1, 3
> CN(C(=O)Cn1nc(-c2ccco2)oc1=O)c1ccc([N+](=O)[O-])cc1
    -1, -1
> Cc1ccc(CN(Cc2ccc3c(c2)OCO3)C(=O)CN(CC2CCCO2)C(=O)c2ccc(F)cc2)o1 (stereo unspecified)
    -15, -12
> Cc1cc(NC(=O)Cc2cccs2)n(-c2nc(-c3ccccc3)cs2)n1
    -8, -13
> CCc1nc(-c2nccn2Cc2nc(C)cc(C)n2)c(C)[nH]1
    14, 3
> Cc1cn2c3c(=O)n(Cc4ccc(Br)cc4)c(=O)n(C)c3nc2n1CCO
    17, 10
> CCOC(=O)C1=C(C)N=C(SCC(=O)O)C(C#N)C1c1ccco1 (stereo unspecified)
    3, 12
> CCCCOC(=O)Nc1cc(C)c(Cl)cc1OC
    3, 4
> CCc1cc(N(C)CCCO)nc(N2CCCC2)n1
    2, 22
> O=C(c1cccc(Cl)c1)N1CCC2(CC1)SCCN2C(=O)c1cccs1
    -5, 10
> CCc1ccccc1OCC(=O)Nc1ccc(Oc2ncccn2)cc1
    14, 13
> Cc1ccc(Nc2nc(N)nc(CSc3ncc(C#N)c(N)n3)n2)cc1
    5, 1
> CC(=O)N1CCN(CC(=O)c2cc(C)n(-c3ccc(C)cc3)c2C)CC1
    4, -2
> CN(Cc1ccccc1)C1CCN(Cc2ncccc2C(=O)O)CC1
    15, 12
> O=C(c1cccc(C(F)(F)F)c1)C1CCCN(Cc2cccc(OCCO)c2)C1 (stereo unspecified)
    11, 5
> Cn1cc(S(N)(=O)=O)cc1C(=O)N1CCN(Cc2ccc(Br)s2)CC1
    0, -1
> COCc1nc(CN2CCN(C)c3ccccc3C2)cs1
    -1, -3
> CCCn1nc(C(=O)NNC(=O)c2cccnc2)c2ccccc2c1=O
    1, 1
> COc1cc(S(=O)(=O)N2CCN(C)CC2)ccc1Br
    0, 8
> CSc1ncc(C(=O)N2CCC(=O)N(CC3CC3)C(C(C)C)C2)cn1 (stereo unspecified)
    1, 0
> N#CC(=NNc1ccccc1)c1nc2ccccc2s1
    -8, -10
> Cc1nn(-c2nc(C)c(C)c(=O)[nH]2)c(C)c1CCC(=O)Nc1ccc(C(N)=O)cc1
    -2, -4
> Cn1c(COC(=O)c2cc(C3CC3)nn2-c2ccccc2)cc(=O)n(C)c1=O
    2, 0
> CCCN(Cc1c(CC)nn(-c2ccc(F)cc2)c1N1CCN(C(C)C)CC1)C(=O)c1cccc([N+](=O)[O-])c1
    5, 22
> CCn1c(C)c(C(=O)CN(CC2CCCO2)C(=O)COc2ccc(Cl)cc2)c(C)c1C(=O)OC (stereo unspecified)
    -9, -7
> COCCCN(CC(=O)N(CCc1ccccc1)Cc1ccc(C)o1)C(=O)NC(C)(C)C
    3, 22
> CCc1cccc2c(C(CC(=O)N3CCC4(CC3)OCCO4)c3ccc(C)cc3)c[nH]c12 (stereo unspecified)
    2, 3
> CCc1nc(CNC(=O)CCn2c(C)cc3ccccc32)cs1
    6, -3
> CC(C)c1ccc(Nc2nnc(SCCO)s2)cc1
    0, 12

# Entries of single compounds, looked up by structure. Values in the order: NPYLR7 agonist	NPYLR7 agonist max-min
# `CCc1cccc2c(C(CC(=O)N3CCC4(CC3)OCCO4)c3ccc(C)cc3)c[nH]c12` (stereo unspecified) is listed as 2	3
# `Cc1nn(-c2nc(C)c(C)c(=O)[nH]2)c(C)c1CCC(=O)Nc1ccc(C(N)=O)cc1` is listed as -2	-4
# `CCn1c(C)c(C(=O)CN(CC2CCCO2)C(=O)COc2ccc(Cl)cc2)c(C)c1C(=O)OC` (stereo unspecified) is listed as -9	-7
# `CC(C)c1ccc(Nc2nnc(SCCO)s2)cc1` is listed as 0	12
# `N#CC(=NNc1ccccc1)c1nc2ccccc2s1` is listed as -8	-10

# (next part)
# Each structure is followed by: NPYLR7 agonist, NPYLR7 agonist max-min
> CCCCOc1ccc(C(=O)Nc2cc(-c3ccco3)nn2-c2nc(C)c(C)c(=O)[nH]2)cc1
    3, -1
> C#CCN(CC=C)Cc1nc(-c2ccc(Cl)cc2)oc1C
    -6, -12
> CCOc1ccc(S(=O)(=O)N2CCN(Cc3nc(N)nc(N(C)C)n3)CC2)cc1
    0, -2
> O=C(Nc1ccc(N2CCN(C(=O)c3ccc4ccccc4c3)CC2)nc1)c1ccco1
    5, -6
> O=C(CCSc1ccc2c(c1)OCCO2)NCCc1nccs1
    2, 0
> O=C1c2oc3ccccc3c(=O)c2C(c2cccc(O)c2)N1Cc1ccccc1 (stereo unspecified)
    21, 25
> CCOC(=O)c1nn(-c2ccccc2)c(=O)cc1OS(=O)(=O)c1cc(C)c(C)cc1C
    -1, 6
> COc1ccc(C)c2sc(N(CCN(C)C)C(=O)CCS(=O)(=O)c3ccccc3)nc12
    -7, -10
> Cc1c(C(=O)NCc2ccccn2)c(CC(C)C)nn1-c1ccc(Cl)cc1
    39, 40
> COC(=O)CN(C)Cc1cn(-c2cccc(C)c2)nc1-c1cccc(F)c1
    0, -7
> COc1ccc2cc(C(N)=O)c(=Nc3ccccc3)oc2c1
    -5, -15
> CCc1nnc(NC(=O)c2cc(-c3ccccc3)nc3ccccc23)s1
    -4, -10
> OCc1ccccc1-c1ccc2oc(-c3cccnc3)nc2c1
    2, 1
> Cc1nnsc1C(=O)Nc1cccc(-c2cccc(-c3ccc(F)cc3)n2)c1
    0, 4
> O=C(Nc1cccc(C(=O)N2CCOC(c3ccc(Cl)cc3)C2)c1)c1cccnc1 (stereo unspecified)
    9, 3

# Arranged by formula weight (smallest number first): part of the list above.
# Each structure is followed by: NPYLR7 agonist, NPYLR7 agonist max-min
> O=C(CCSc1ccc2c(c1)OCCO2)NCCc1nccs1
    2, 0
> O=C(Nc1cccc(C(=O)N2CCOC(c3ccc(Cl)cc3)C2)c1)c1cccnc1 (stereo unspecified)
    9, 3
> COc1ccc(C)c2sc(N(CCN(C)C)C(=O)CCS(=O)(=O)c3ccccc3)nc12
    -7, -10

# Continued.
Molecule,NPYLR7 agonist,NPYLR7 agonist max-min
CC(C)CCn1c(=O)c2c(nc3n2CC(C)CN3c2ccc(F)cc2)n(C)c1=O (stereo unspecified),1,-1
CC(CNC(=O)c1cc(Cl)c2c(c1)OCO2)N1CCN(C)CC1 (stereo unspecified),8,3
CCCCN(C1=NC2CS(=O)(=O)CC2S1)c1ccc(C)c(C)c1 (stereo unspecified),4,1
CCCn1cc(C(=O)Nc2ccc3c(c2)OCCO3)c2nn(-c3ccccc3)c(=O)c-2c1,6,5
CC(C)(Oc1ccc2c(c1)CCC2)C(=O)NC1C=CS(=O)(=O)C1 (stereo unspecified),14,9
COc1ccc(C(=O)n2cnc3ccccc32)cc1I,-3,-3
O=C(COc1ccc(Cl)cc1Cl)Nc1ccc(N2CCN(C(=O)c3ccco3)CC2)cc1,-4,-12
O=C(Cn1cccc(C(F)(F)F)c1=O)NC1CCCc2nc(-c3ccccc3)sc21 (stereo unspecified),-1,16
CS(=O)(=O)c1ccc(-c2nccc(C3CCCC3)n2)cc1,0,-1
CN(C)S(=O)(=O)NCCn1nc(-c2ccccc2)n(C)c1=O,2,1
Cc1cccc(C(=O)N2C[C@@H](C(=O)O)C[C@@H](C(=O)Nc3ccc(F)cc3)C2)c1,4,2
COc1ccc(CC(=O)NCC2CCCN(C(=O)c3cn4c(C)cccc4n3)C2)cc1 (stereo unspecified),-3,-7
S=c1[nH]nc(-c2ccncc2)n1N=Cc1ccccc1,3,1
COc1ccc(CCC(=O)N2CCCC(CCC(=O)NC3CC3)C2)cc1 (stereo unspecified),-3,-7
COC(=O)c1c(NC(=O)CCl)sc2c1CCC2,-4,-8
O=C(CCC1(Cc2ccco2)CCC(=O)N1)NC1c2ccccc2-c2ccccc21 (stereo unspecified),4,0
Cc1ccc(C)c(S(=O)(=O)N2CCN(C(=O)c3ccoc3C)CC2)c1,19,9
CC(=O)NCCC1=CCCN(C/C=C/c2ccccc2)C1,4,0
Cc1nc(-n2nc(C3CC3)cc2NC(=O)c2cccs2)[nH]c(=O)c1C,5,3
COCCN(CCC(=O)N1CCN(c2ccccc2F)CC1)c1nc(Cc2ccc(C)cc2)ns1,9,9
CCN(CC)Cc1ccccc1CNC(=O)c1n[nH]c(=O)c2ccccc12,2,1
CCCC(C)c1nnc(NC(=O)c2cc(C)[nH]c(=O)c2)s1 (stereo unspecified),-5,-7
Cn1c(=NC(=O)CCS(=O)(=O)c2ccc(F)cc2)sc2c(Cl)ccc(Cl)c21,3,3
COCCN(Cc1csc(COc2cccc3ccccc23)n1)C(=O)C1CC1,-2,0
CC(=O)N(CCN(C)C)Cc1cc(NC(=O)c2cccc(F)c2)ccc1N(C)C,21,18
COc1ccc(CN(CCc2c[nH]c3ccccc23)C(=O)CN(C(=O)C2CCCCC2)C2CC2)cc1,13,10
Cc1ccc(-c2cc3c(=O)n(Cc4nc(-c5cccc(Cl)c5)oc4C)ccn3n2)cc1C,0,-2
C=CCNc1nc(C(=O)OCC(=O)c2[nH]c(C)c(C(C)=O)c2C)cs1,8,6
Cc1noc(-c2ccncc2)c1C(=O)NCCCN1CCCCC1C (stereo unspecified),13,9
c1ccc(C2CN3CCSC3=N2)cc1 (stereo unspecified),-2&2,-8&0
Cc1c(Cl)c([N+](=O)[O-])nn1CC(=O)NCCCN1CCOCC1,4,-3
CONC(=O)C(c1ccccc1)N(C(C)C)C(C)C (stereo unspecified),0,-3
Cc1cc(S(=O)(=O)NCc2ccco2)c(C)cc1Br,1,12
Cc1noc(C)c1C(=O)OCC(=O)NC1c2ccccc2-c2ccccc21,7,3
COc1ccc(CN(Cc2ccncc2)Cc2ccc(F)cc2)cn1,22,11
CCOCC(=O)NC(C)(C)C(=O)Nc1ccccc1,12,11
COc1ccc(Cl)cc1-c1nc(C=Nc2ccc3ccccc3c2)c(O)o1,-1,1
Cn1c(=O)c2c(ncn2CCOc2ccc(C(C)(C)C)cc2)n(C)c1=O,-3,-3
CCCCC1C=CCN1Cc1ccc(CO)o1 (stereo unspecified),1,-1
CCS(=O)(=O)c1ccc(Cl)c(C(=O)N(C)CC2CCCC2)c1,10,11
Cc1ccc2c(c1)C(Cc1nc3ccccc3c(=O)n1-c1ccccc1)C(=O)N2C (stereo unspecified),7,6
COc1cc2c(cc1OC)CN(C1CCCN(Cc3csc(C(C)=O)c3)C1)CC2 (stereo unspecified),20&-1,9&1
CC(C)NS(=O)(=O)c1ccc(OCCNS(C)(=O)=O)cc1,6,3
O=C1CSC(c2cccs2)N1CCO (stereo unspecified),-1,-3
COc1cc2c(cc1OC)C(CNC(=O)c1ccccc1)N(C(=O)Nc1cccc(F)c1)CC2 (stereo unspecified),9,16
Cc1cccn2cc(COC(=O)c3n[nH]c(=O)c4ccccc34)nc12,17,15
COc1ccc(OC)c(S(=O)(=O)N2CCCC2)c1,6,8
c1ccc(-c2nnc(CN(Cc3cccs3)C3CC3)o2)cc1,17,13
CC(CNS(=O)(=O)c1ccc(F)c(F)c1)N1CCN(c2ccccc2)CC1 (stereo unspecified),-5,-5
CCCc1cnc(C)nc1N1CCC2(CCC(=O)N(C)CC2)CC1,7,3
CCCCN(C)c1c(C)nc2ccc(C(=O)NCc3ccc4c(c3)OCO4)cn12,0,-4
Cc1ccc(S(=O)(=O)Nc2ccccc2C(=O)Nc2nc(-c3cccs3)cs2)cc1,-4,-4
COCCN1CCC(CN2CCN(c3ncc(C)c(N)n3)CC2)CC1,4,5
Cc1c(C(=O)NCc2ccc(C#N)cc2)sc(=O)n1Cc1ccccc1F,21,15
O=C1NCC2(CCCN(C(=O)c3cc(-c4ccccc4)on3)CC2)O1 (stereo unspecified),5,6
Cc1nn2c(ncc3c(=O)n(-c4ccc5c(c4)OCCO5)ccc32)c1-c1ccccc1,22,17
Cc1ccccc1C(=O)N1N=C(c2ccc(Br)cc2)CC1c1nc2ccccc2[nH]1 (stereo unspecified),-7,-8
Cc1ccc[n+](-c2nc3ccccc3nc2C(C#N)C#N)c1,9,13
O=C(CCc1cccnc1)N1CCOC(Cc2ccccc2)C1 (stereo unspecified),-10,-3

# Among those listed so far, 2 have a CF3 group:
Molecule,NPYLR7 agonist,NPYLR7 agonist max-min
O=C(c1cccc(C(F)(F)F)c1)C1CCCN(Cc2cccc(OCCO)c2)C1 (stereo unspecified),11,5
O=C(Cn1cccc(C(F)(F)F)c1=O)NC1CCCc2nc(-c3ccccc3)sc21 (stereo unspecified),-1,16
